Source: PubChem BioAssay
KCNQ2 inh = KCNQ2 potassium channel inhibitors, primary screen, cell-based, CHO-K1, FluxOR thallium flux, B-score (AID 2156); 20 min; stronger effect = lower value; only compounds with negative scores are shown here; some inactives read as strong as hits; O88943; B-score at 10 µM; 1.1% of 310,000 active;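 active means fluorescence ratio B-score at most minus 3 library SDs, with starting brightness B-score within 2 library SDs, cut at about -5.5 in these data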
Target sequence (O88943 whole entry, looked up): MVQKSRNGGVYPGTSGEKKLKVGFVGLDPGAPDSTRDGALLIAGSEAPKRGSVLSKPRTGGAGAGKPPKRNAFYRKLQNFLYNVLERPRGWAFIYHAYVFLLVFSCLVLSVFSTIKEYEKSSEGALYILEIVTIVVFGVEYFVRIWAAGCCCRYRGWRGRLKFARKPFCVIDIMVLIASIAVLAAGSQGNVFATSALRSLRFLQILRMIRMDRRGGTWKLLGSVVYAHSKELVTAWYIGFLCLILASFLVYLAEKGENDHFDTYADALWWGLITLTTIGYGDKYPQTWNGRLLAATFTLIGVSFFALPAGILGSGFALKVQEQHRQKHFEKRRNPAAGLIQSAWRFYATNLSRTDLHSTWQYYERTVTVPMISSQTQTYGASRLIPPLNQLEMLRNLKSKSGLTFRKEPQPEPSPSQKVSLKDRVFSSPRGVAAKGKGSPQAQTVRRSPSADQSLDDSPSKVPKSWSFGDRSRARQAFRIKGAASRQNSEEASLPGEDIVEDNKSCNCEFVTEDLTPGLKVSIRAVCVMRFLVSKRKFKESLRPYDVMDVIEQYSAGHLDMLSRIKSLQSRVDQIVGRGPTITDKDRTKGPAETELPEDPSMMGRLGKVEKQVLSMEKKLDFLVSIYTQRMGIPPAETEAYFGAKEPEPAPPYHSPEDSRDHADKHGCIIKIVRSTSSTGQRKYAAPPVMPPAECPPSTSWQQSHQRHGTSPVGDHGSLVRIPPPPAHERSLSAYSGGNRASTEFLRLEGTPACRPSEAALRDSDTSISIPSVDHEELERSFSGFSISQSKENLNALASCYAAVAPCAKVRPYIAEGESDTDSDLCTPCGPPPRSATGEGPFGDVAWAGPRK
KCNQ2 inh baseline = also measured in KCNQ2 inh; calls as there; B-score; measured here: initial fluorescence intensity artifact check;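 brightness before thallium and not channel activity; 0 = typical well and far values either way flag optical interference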
* = called active by the depositor; i = inactive. This is a subset; count on the stated rates, not on these rows.

SMILES	KCNQ2 inh	KCNQ2 inh baseline
CCC1=C(OC(=O)N(CC)CC)N2C(=O)OC(=NCC3CC3)[C@]2(C)[C@H]2C1=CC[C@H]1C(=O)N(C)C(=O)[C@H]12	i	0.72
COC(=O)Cn1c(Cc2ccccc2)nc2ccccc21	i	0.78
CCN=C(N/N=C/c1ccc([N+](=O)[O-])cc1)SC	i	1.72
CCCCCC(O)(CCN1CCCCC1)c1ccccc1 (stereo not drawn)	i	1.07
COCCCNS(=O)(=O)c1cc2c3c(c1)C(C)C(=O)N3CCC2 (stereo not drawn)	i	-0.1
O=C(CSc1nnc(NCc2ccccc2)s1)NC1CCS(=O)(=O)C1 (stereo not drawn)	i	-1.03
CC1CCN(C(=O)c2cc3ccccc3c(=O)o2)CC1	i	2.14
COc1cccc(CN(C)Cc2nc(Cc3ccccc3Cl)no2)c1	i	-0.21
CC(C)(C)c1ccc(C(=O)C2CCCN(C(=O)CN3CCCC3=O)C2)cc1 (stereo not drawn)	i	-0.76
CCC(Sc1ccccn1)C(=O)Nc1nnc(C)s1 (stereo not drawn)	i	-2.52
O=C(NC1CCCCC1)c1ccc(-c2cccc([N+](=O)[O-])c2)o1	i	0.52
COC(=O)c1ccccc1NC(=O)CSc1nnc(CNS(=O)(=O)c2ccc(C)cc2)n1C	i	-0.2
CCN(CC)c1ccc(C=Nc2cccnc2Cl)c(O)c1	i	-1.21
COc1ccc(Cc2nnc(NC(=O)Cc3cccs3)s2)cc1OC	i	0.32
Cc1cccc(-n2ncc3c(N4CCCc5ccccc54)ncnc32)c1	i	0.52
CCOc1cc(/C=N/NC(=O)CSc2nnc(C)s2)ccc1OCc1ccccc1Cl	i	-1.26
Cc1[nH]c2ccccc2c1SCC(=O)NC1CCCCC1	i	1.41
Cc1nonc1C(=O)N/N=C/c1ccc(O)c(O)c1	i	-1.02
N#Cc1ncc(-c2ccc3c(c2)OCCOCCOCCOCCO3)nc1C#N	i	2.15
O=C(CSc1nnc(CNC(=O)c2ccccc2)o1)Nc1ccc2c(c1)OCCO2	i	0.43
COc1ccc(NC(=O)c2sc3nc(C)cc(C)c3c2N)c(OC)c1	i	-1.09
c1ccc(C(c2ccccc2)N2CCN(c3ccc4ccccc4n3)CC2)cc1	i	-0.5
CC(=O)Nc1nc(C2COc3ccccc3O2)cs1 (stereo not drawn)	i	0.92
CCC(C)(C)n1nnnc1C(c1ccc2ncccc2c1)N1CCN(c2ccc(O)cc2)CC1 (stereo not drawn)	i	-0.42
COCCN(C(=O)COC(=O)CCc1c[nH]c2ccccc12)c1c(N)n(Cc2ccccc2)c(=O)[nH]c1=O	i	-4.18
CCCCC(=O)N1CCCC(C(=O)OCC)C1 (stereo not drawn)	i	1.98
COc1ccccc1CNC(=O)c1cnc2sccn2c1=O	i	-0.64
Cc1csc2nc(CSc3nc4ccccc4o3)c(Br)n12	i	-0.5
CN1CCN(CC(=O)Nc2nc3ccccc3s2)CC1	i	-0.06
Cc1ccc(-c2noc(-c3ccno3)n2)cc1	i	-0.53
O=C(O)c1cccc(NC(=O)c2cccc(S(=O)(=O)N3CCc4ccccc4C3)c2)c1	i	-0.09
CCN(CC(=O)Nc1ccc(OC)cc1)C(=O)CCS(=O)(=O)c1ccc(C)cc1	i	0.67
C/C(=N\OCC(=O)OC(C)C(=O)Nc1ccc(C(N)=O)cc1)c1ccc2c(c1)OCO2 (stereo not drawn)	i	1.8
CC1CCCC(C)N1C(=O)Cn1c(SCC(=O)NCc2ccc3c(c2)OCO3)nc2ccccc21 (stereo not drawn)	i	0.03
CCN(CC)c1ccc2c(C)c(CN3CCOCC3)c(=O)oc2c1	i	-0.36
Cc1nc2ccc(Br)cc2c2c1CC(CO)O2 (stereo not drawn)	i	-0.64
CCOC(=O)c1c(C)nc2sc3c(=O)n(-c4ccc(OC)cc4)cnc3c2c1-c1ccc(OC)cc1	i	-0.12
CCCN1C(=O)c2ccc(C(=O)NCc3ccco3)cc2C1=O	i	2.28
CCOC(=O)c1cc(=O)n2nc(-c3ccccc3F)nc2s1	i	0.12
Cc1ncc(CO)c(/C=N/NC(=O)c2cc(Br)ccc2O)c1O	i	-2.04

Structures above containing bromine (three):
SMILES	KCNQ2 inh	KCNQ2 inh baseline
Cc1csc2nc(CSc3nc4ccccc4o3)c(Br)n12	i	-0.5
Cc1nc2ccc(Br)cc2c2c1CC(CO)O2 (stereo not drawn)	i	-0.64
Cc1ncc(CO)c(/C=N/NC(=O)c2cc(Br)ccc2O)c1O	i	-2.04

(more compounds)
SMILES	KCNQ2 inh	KCNQ2 inh baseline
CCN1C(=O)N(CC)c2cccc3cccc1c23	i	0.04
O=C(NNc1nc(-c2ccccc2)c2cc(Br)ccc2n1)c1ccc(S(=O)(=O)N2CCOCC2)cc1	i	-1.31
O=C(Cn1nc(-c2ccccc2)c2ccccc2c1=O)NCCO	i	-1.32
CCOP(=O)(OCC)C(NC(=O)Nc1c(C)cc(C)cc1C)c1ccccc1 (stereo not drawn)	-9.24*	-0.56*
Cc1n[nH]c(=S)n1-c1cccc(Cl)c1	i	2.13
Cc1ccsc1C(=O)OCC(=O)NCC1CCCO1 (stereo not drawn)	i	-1.94
Cc1nn(C(=O)CCC(=O)NCc2cccc(F)c2)c2ccccc12	i	2.44
CC(C)NC(=O)C1COc2ccccc2O1 (stereo not drawn)	i	1.2
CCCCC(=O)NC(c1ccc(OC)c(OC)c1)c1c(O)ccc2ccccc12 (stereo not drawn)	i	0.29
Cc1ccc([C@@H]2[C@@H]3C(=O)N(c4ccccc4)C(=O)[C@@H]3[C@]3(Cc4ccccc4)C(=O)N(CC4CC4)CC(=O)N23)o1	i	-0.13
CCOc1cc(CNCCCN2CCOCC2)ccc1OCC(=O)Nc1cccc2ccccc12	i	0.18
CSC1=NC(C)(C)C=C(/C=C/c2ccc(Cl)cc2Cl)N1	i	-0.21
Clc1cccc(Cl)c1Cn1cnc2c(N3CCCCCC3)ncnc21	i	0.09
O=C(O)/C(=C\c1cccs1)c1ccccc1	i	1.46
O=C(CCC1CCCC1)Nc1ccon1	i	1.8
COC(=O)C1=C(C)N(Cc2ccco2)C(=O)/C1=C\c1ccc([N+](=O)[O-])cc1	i	0.95
CCN(C(=O)C(C)N1C(=O)/C(=C/c2cccs2)SC1=S)C1CCS(=O)(=O)C1 (stereo not drawn)	i	-0.32
O=C(Nc1ccc(C(=O)O)cc1)/C(=C\C=C\c1ccccc1)NC(=O)c1ccc(Br)cc1	i	-1.82
CCN(CC)S(=O)(=O)c1ccc(C2=NOC3(C2)N(C)c2ccccc2C3(C)C)cc1 (stereo not drawn)	i	0.5
CCCCNCC(O)(c1ccc(Cl)cc1)c1ccc(Cl)cc1	i	-0.84

Laid out differently: 3 of the compounds above
compound | KCNQ2 inh | KCNQ2 inh baseline
CC(C)NC(=O)C1COc2ccccc2O1 (stereo not drawn) | i | 1.2
Clc1cccc(Cl)c1Cn1cnc2c(N3CCCCCC3)ncnc21 | i | 0.09
Cc1ccc([C@@H]2[C@@H]3C(=O)N(c4ccccc4)C(=O)[C@@H]3[C@]3(Cc4ccccc4)C(=O)N(CC4CC4)CC(=O)N23)o1 | i | -0.13

Quoted from the listing.
For KCNQ2 inh baseline, `Cc1nn(C(=O)CCC(=O)NCc2cccc(F)c2)c2ccccc12` is listed with 2.44
For KCNQ2 inh baseline, `Cc1ccsc1C(=O)OCC(=O)NCC1CCCO1` (stereo not drawn) is listed with -1.94
For KCNQ2 inh baseline, `CC(C)NC(=O)C1COc2ccccc2O1` (stereo not drawn) is listed with 1.2
For KCNQ2 inh baseline, `Clc1cccc(Cl)c1Cn1cnc2c(N3CCCCCC3)ncnc21` is listed with 0.09
For KCNQ2 inh baseline, `CCN(CC)S(=O)(=O)c1ccc(C2=NOC3(C2)N(C)c2ccccc2C3(C)C)cc1` (stereo not drawn) is listed with 0.5

The listing continues.
SMILES	KCNQ2 inh	KCNQ2 inh baseline
O=C(CCCC(=O)c1ccc(O)cc1)c1ccc(O)cc1	i	0.15
O=C(N/N=C/c1ccccc1)c1cc[n+]([O-])cc1	i	-0.1
CCn1cc(CN2CCC(n3nccc3NC(=O)CCCc3ccccc3)CC2)cn1	i	-0.04
CCN1CCN(C(=O)c2ccc3c(=O)n(CCC4=CCCCC4)c(=O)[nH]c3c2)CC1	i	-0.05
COCCn1c(C)cc(C2=NNC(=NC3CC3)SC2)c1C	i	-0.08
Cc1ccc(C)c(NC(=O)CSc2nnc([C@@H]3CCCN3C(=O)OC(C)(C)C)o2)c1	i	-0.14
O=[N+]([O-])c1cccnc1Sc1n[nH]c(-c2ccc(Cl)cc2)n1	i	1.19
COc1ccc(-n2c(CN3CCN(C)CC3)nc3ccc([N+](=O)[O-])cc3c2=O)c(OC)c1	i	-0.08
O=C(NCc1ccccn1)/C(=C/c1ccco1)NC(=O)c1ccccc1	i	3.67
O=C(COC(=O)/C=C/c1ccc(Cl)cc1Cl)Nc1cc(C(F)(F)F)ccc1N1CCOCC1	i	1.94
CCc1ccc(NC(=O)CSc2nnnn2C)cc1	i	0.62
C/C=C/C(=O)OCC(=O)Nc1ccc(OC)c(OC)c1	i	-1.94
Cc1ccc(S(=O)(=O)Nc2ccc(NC(=O)c3cccnc3)cc2)cc1	i	-0.15
COc1ccc(Cl)cc1NS(=O)(=O)c1cccc(C(=O)NCC2(N(C)C)CCCCC2)c1	i	-0.33
O=C1CN(C(=O)/C=C/c2cc(Br)ccc2F)CCN1	i	-0.92
Cc1c(N=Cc2cccs2)c(=O)n(-c2ccccc2)n1C	i	0.97
c1ccc(OCCOCCN2CCOCC2)cc1	i	0.07
COc1cc(-c2nnc(CSc3nnc(Nc4ccc(Oc5ccccc5)cc4)s3)o2)cc(OC)c1OC	i	-1.13
CCC(C)NC(=O)CN1C(=O)NC2NC(=O)NC21 (stereo not drawn)	i	0.04
Cc1cc(Br)cc2c(C(=O)NCC3CCCO3)cc(-c3ccccc3)nc12 (stereo not drawn)	i	-0.37
CC(=O)c1cccc(NC(=O)C2CCCN2S(=O)(=O)c2cccc3cccnc23)c1 (stereo not drawn)	i	-1.45
Cc1noc(C)c1COc1ccc(C(=O)OCC(=O)OC(C)(C)C)cc1	i	-0.47
CN(Cc1cccc(Cl)c1Cl)CC(O)COc1ccccc1 (stereo not drawn)	i	-0.41
Cc1cc(C)c(OCCn2ccnc2)c(C)c1	i	0.58
c1ccc2c(CSCc3nc4ccccc4[nH]3)cccc2c1	i	1.08
Cc1ccc(S(=O)(=O)NC(CC(C)C)C(=O)N2CC(C)OC(C)C2)cc1 (stereo not drawn)	i	-0.62
COC(=O)c1ccc(OC)c(CSc2nnc(COc3ccc(OC)cc3)o2)c1	i	1.11
Cc1ccc(N(CC(=O)Nc2cc(Cl)ccc2Oc2ccccc2)S(C)(=O)=O)cc1C	i	1.38
COc1ccc(C(=O)[C@@H]2CC[C@](C)(C(=O)O)C2(C)C)cc1	i	-0.04
CN1CCN(C(=O)C2=C[C@H](C3CC3)C[C@H](OCc3ccc(CO)cc3)O2)CC1	i	0.78
Cc1nc([N+](=O)[O-])cn1CC(=O)c1ccccc1	i	0.66
O=C(NC(=S)Nc1ccc(Br)c(Cl)c1)C1CC1	i	2.41
C=CCNC(=O)/C(=C/c1ccccc1OCC)NC(=O)c1ccccc1	i	-1.7
Cc1ccc(CNC(=O)c2ccccc2-n2cnnn2)cc1	i	0.2
CCOC(=O)c1nnc(-c2ccc(C)cc2)nc1Sc1ccc(Cl)cc1	i	-0.15
COCCNC(=O)C1CCC(=O)N(c2ccc(OC)cc2)C1c1ccc(OC)c(OC)c1 (stereo not drawn)	i	-1.08
NC(=O)CCC(NS(=O)(=O)c1ccc(Cl)cc1)C(=O)NCc1ccccc1Cl (stereo not drawn)	i	-0.15
N#C/C(=C\c1ccc(OC(=O)c2ccccn2)cc1)C(N)=O	i	1.21
Cc1ccc(-c2nn(-c3ccccc3)cc2C(=O)NCC(c2cccs2)N2CCOCC2)cc1 (stereo not drawn)	i	-1.31
COCc1nnc(NC(=O)C2CCN(C(=O)c3ccco3)CC2)s1	i	-0.21

Full records, quoted from the list. Values in the order: KCNQ2 inh	KCNQ2 inh baseline
`Cc1ccc(N(CC(=O)Nc2cc(Cl)ccc2Oc2ccccc2)S(C)(=O)=O)cc1C` reads i	1.38
`CN(Cc1cccc(Cl)c1Cl)CC(O)COc1ccccc1` (stereo not drawn) reads i	-0.41
`Cc1ccc(-c2nn(-c3ccccc3)cc2C(=O)NCC(c2cccs2)N2CCOCC2)cc1` (stereo not drawn) reads i	-1.31

The list goes on:
SMILES	KCNQ2 inh	KCNQ2 inh baseline
CCOc1ccc(N=C2NC(=O)CS2)cc1	i	1.93
CC(=O)N1CCCC(C(=O)c2ccc(Oc3ccccc3)cc2)C1 (stereo not drawn)	i	0.27
Cc1cc(OC(=O)c2cccc(F)c2)c([N+](=O)[O-])c(=O)[nH]1	i	-0.27
FC(F)(F)c1cccc(Cc2noc(CN(Cc3ccccn3)CC3CCCO3)n2)c1 (stereo not drawn)	i	3.37
Nc1c(C(=O)NCc2ccc3c(c2)OCO3)c2nc3ccccc3nc2n1CCCN1CCOCC1	i	-0.96
CSCCC(NC(=O)COc1ccccc1)C(=O)N1CCN(c2ccccc2O)CC1 (stereo not drawn)	-6.23*	-0.56*
Cc1cccc(NC(=O)CSCc2cc(=O)n3ccsc3n2)c1C	i	-0.17
COc1ccc(N2CCN(C(=O)C3CCN(C(=O)c4ccc([N+](=O)[O-])cc4)CC3)CC2)cc1	i	-1.62
O=C(Cc1c(F)cccc1Cl)NCCc1c[nH]c2ccccc12	i	-0.74
COc1ccc(C2C(C(=O)OCC(=O)Nc3ccc(C)cc3)CCC(=O)N2c2ccc(OC)cc2)cc1 (stereo not drawn)	i	-0.86
O=C(CSc1ncn[nH]1)N1CCN(c2nnc(-c3ccccc3)c3ccccc23)CC1	i	2.37
COc1ccc(OC)c(C2CC(c3ccccc3)=NN2C(=S)Nc2ccccc2)c1 (stereo not drawn)	i	-1.27
Oc1c(C(c2ccccc2Cl)N2CCCC2)ccc2cccnc12 (stereo not drawn)	i	-0.44
Cc1cc(NC(=O)c2ccc(Cl)cc2Cl)n(CCC#N)n1	i	-3.14
Cc1ccc(C)c2[nH]c(=O)c(CN(CCN3CCOCC3)Cc3nnnn3CC3CCCO3)cc12 (stereo not drawn)	i	1.12
CCC1Nc2ncnc(N3CCCCC3)c2N(Cc2ccccc2)C1=O (stereo not drawn)	i	-2.05
